Screening results as filed in PubChem.
E coli growth: blocks Escherichia coli growth; OD600, 23 h; stronger effect = lower value; OD600 absorbance (test concentration not listed); hit rate 0.21% among 330,000; AID 1053175;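 active means OD600 absorbance below the run mean of sample wells minus 3.6 SD, in any replicate, cut at about 0.56 in these data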;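 further: stock transfer was 300 nL into about 60 µL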
MLL AF4-AF9 inh: inhibitors of human MLL-AF4/AF9 interaction. AlphaScreen, biotin-AF4 peptide binding to FLAG-AF9. hit rate 0.47% among 350,000. inhibition, % at 10 µM;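 active means every replicate reaching a set inhibition limit, whatever the replicate mean, cut at about 25% in these data; inconclusive means mean inhibition reaches that limit but some replicates miss it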;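 further: 0% = plate neutral control median and 100% = total signal loss; the record names both 10 and 1 µM as test concentration; the first replicate is given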
Target sequence (P42568 whole entry, looked up): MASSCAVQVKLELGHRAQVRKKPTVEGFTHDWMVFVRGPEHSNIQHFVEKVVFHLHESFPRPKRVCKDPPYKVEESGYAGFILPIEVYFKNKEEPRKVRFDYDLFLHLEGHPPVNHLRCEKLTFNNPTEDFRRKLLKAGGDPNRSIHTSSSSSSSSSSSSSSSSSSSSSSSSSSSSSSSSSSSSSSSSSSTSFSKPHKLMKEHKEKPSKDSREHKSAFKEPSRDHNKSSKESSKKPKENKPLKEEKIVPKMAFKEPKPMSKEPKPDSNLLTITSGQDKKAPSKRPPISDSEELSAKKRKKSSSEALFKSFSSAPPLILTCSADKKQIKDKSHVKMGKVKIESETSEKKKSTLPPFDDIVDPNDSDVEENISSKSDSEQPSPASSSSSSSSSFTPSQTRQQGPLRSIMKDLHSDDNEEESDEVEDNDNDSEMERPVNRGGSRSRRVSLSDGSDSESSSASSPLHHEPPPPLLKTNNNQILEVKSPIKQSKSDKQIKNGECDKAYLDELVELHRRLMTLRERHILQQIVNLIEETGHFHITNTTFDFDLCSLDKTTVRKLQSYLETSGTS
RanGTP-Impb inh: inhibitors of RanGTP-importin-beta interaction, primary screen, biochemical, FRET, CFP-Ran, YFP-importin-beta, homogeneous; cell-free CFP-Ran/YFP-importin-beta FRET ratio; inhibition, % (concentration not given with the values); hit rate 1.1% among 300,000; AID 2216;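 active means most replicates above 15%; inconclusive means exactly half above 15%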;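 further: 0% = DMSO wells and 100% = Ran loaded with GDP instead of GTP; wells of about 40 µL received 100 nL stock; the first replicate is given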
FGF22 binding: FGF22 (human) thermal shift binding; Q9HCT0; recombinant FGF22 thermal shift, SYPRO orange fluorescence; percent of sucrose octasulfate shift, DMSO zero; calls only at 9.99 µM; hit rate 1.5% among 340,000; AID 651658;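 active means melting point raised past a set limit in the mean and every replicate; inconclusive means no clear call; three in four hits are not shown here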
Target sequence (Q9HCT0 whole entry, looked up): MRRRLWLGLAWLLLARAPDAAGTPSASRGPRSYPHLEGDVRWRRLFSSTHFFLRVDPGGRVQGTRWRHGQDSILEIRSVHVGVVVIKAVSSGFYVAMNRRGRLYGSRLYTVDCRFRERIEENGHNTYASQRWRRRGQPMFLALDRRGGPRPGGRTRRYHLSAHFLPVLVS
Vif A3G: HIV-1 Vif–A3G interaction blockers – biochemical, TR-FRET, GST-Vif 1-94, biotin-A3G peptide, dose response retest, primary screen (AID 1117319) | TR-FRET GST-Vif / biotin-A3G peptide binding; higher % means a stronger effect; test concentration not given here; strong numbers were not always called active | inhibition, %, or IC50 in µM where a hit was titrated | hit rate 0.57% among 260,000;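 active means above the screen mean plus three standard deviations and confirmed in dose response; inconclusive means results disagree or hit not tested in dose response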;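 further: Vif residues 1-94 fused to GST binding biotinylated APOBEC3G peptide 110-148; 0% = full assay without inhibitor and 100% = GST in place of GST-Vif; retest series ran down from 100 µM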
HNF4A DNA FP: change in binding of human HNF4 alpha to DNA; P41235; HNF4a-FITC DNA binding, fluorescence polarization, 1 h; activity change, % at 10 µM; hit rate 0.3% among 360,000; AID 1224865; in the data active means activity change above about 30%, passing the limit was not always enough;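 further: controls were the assay level and a saturating level of protein; the project sought stronger binding though the title names inhibitors; some compounds called inactive have numbers as strong as hits; positive values seem to mean higher polarization but the record does not say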
UCH37 DUB inh: blocks the human deubiquitinase UCH37; inhibition, % (no concentration beside the values); purified proteasome/UCH37, Ub-AMC cleavage fluorescence; hit rate 0.33% among 330,000; Q9Y5K5;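 active means mean of two replicates above 20%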;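 further: 0% = compound-free wells with enzyme and 100% = wells lacking proteasome; stock transfer was 100 nL into about 20 µL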
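Material: Human UCH37 enzyme supplied as purified proteasome complex | Schedule: 30 min preincubation with enzyme, 25 min cleavage at room temperature | Detection: AMC fluorescence 355/460 nm | Measure: % inhibition of Ub-AMC cleavage fluorescence | Controls: Wells without proteasome as full block, compound-free enzyme plus substrate as uninhibited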
* marks the source's active call; other numbers are inactive results; i = inactive; ? = inconclusive; . = no result given; + = active, no number. An excerpt. The share of hits here may be higher or lower than overall.

Sequence of screens: E coli growth	MLL AF4-AF9 inh	RanGTP-Impb inh	FGF22 binding	Vif A3G	HNF4A DNA FP	UCH37 DUB inh
CCOc1cc(C(=O)NC(C)CC)cc(OCC)c1OCC (centres undefined)
  0.747	.	-1.0	.	0.3%	-1.5	-2.5
CSc1nc2nc3c(cn2n1)C(=O)CC(c1ccccc1)C3 (centres undefined)
  0.633	.	-56.0	.	3.1%	-0.7	-1.6
COc1cccc(CNC(=O)c2c[nH]n3c(=O)c(Cl)c(C)nc23)c1
  0.691	.	3.7	.	-0.9%	1.1	1.2
C=CCSc1nnc(NC(=O)c2ccc3c(c2)OCCO3)s1
  .	-1.8	.	i	.	-1.2	.
Cc1ccc(S(=O)(=O)C[C@@H]2OC[C@H](CO)N2S(=O)(=O)c2ccc(C)cc2)cc1
  .	-1.9	.	i	.	0.1	.
COc1ccc(CNC(=O)CCNS(=O)(=O)c2ccc(NC(C)=O)cc2)cc1OC
  0.686	0.1	.	i	-4.4%	-3.4	-3.2
COc1ccc(/C=N/OC/C(O)=C(\C#N)c2nc3ccccc3[nH]2)cc1OC
  .	.	-0.1	.	?	-1.4	.
COC(=O)c1sccc1NC(=O)CC1C(=O)NCCN1C(=O)c1ccc(F)cc1 (centres undefined)
  0.648	-3.0	1.0	i	-7.3%	1.2	3.3
CC(C)CNc1c(N)c(=O)oc2ccccc12
  0.643	.	1.3	.	-9.8%	-0.1	5.3
OC(CN1CCN(c2ccccc2)CC1)c1c[nH]c2ccccc12 (centres undefined)
  0.66	.	0.1	.	-0.4%	2.9	23.8*
CCOC(=O)N1CCC(NS(=O)(=O)c2ccc3c(c2)C(C)(C)C(=O)N3C)CC1
  0.673	.	1.8	.	-1.9%	0.9	1.5
COC(=O)/C=C1\OCc2ccccc21
  .	-2.2	.	i	.	1.6	.
O=C(CN1C(=O)C2CC=CCC2C1=O)NCC1COc2ccccc2O1 (centres undefined)
  0.725	.	0.3	.	1.0%	-8.7	-5.8
CC(C)c1ccccc1OS(N)(=O)=O
  0.673	3.1	3.5	i	.	0.8	6.5
CCCOc1ccc2c(=O)c(N3C(=O)c4ccccc4C3=O)c(C)oc2c1
  0.702	.	2.4	.	8.8%	-2.4	3.6
COC(=O)c1c(C)[nH]c(C)c1-c1ccccc1
  0.745	.	1.1	.	2.6%	-1.0	-2.8
COc1ccc2nccc(C(N)=O)c2c1
  0.708	-1.7	0.9	i	-6.8%	4.6	-298.3
COc1ccc(/C=N/OCc2ccc(Br)cc2)c(OC)c1
  .	-5.4	-0.6	i	9.0%	1.3	.
Cc1cc[n+](CC(=O)N2CCCc3ccccc32)cc1
  0.676	-2.3	-2.8	i	.	-0.2	3.2
CCOC(=O)c1nnn(-c2nonc2-n2cccc2)c1-c1cccc([N+](=O)[O-])c1
  0.737	1.3	4.9	i	.	1.6	2.8
Cc1cc(C(=O)NCc2ccc(S(N)(=O)=O)cc2)c(C)o1
  0.637	.	-3.0	.	21.2%	-1.1	1.1
O=C(Cc1ccccc1)Nc1cc2c(cc1Cl)OCCCO2
  0.685	-1.5	-3.8	i	.	-1.5	4.8
CC(C)Oc1ccccc1OCCN(C)C
  0.666	1.4	1.8	i	-2.9%	4.5	2.5
COc1ccc(CC(=O)Nc2nc(-c3cccnc3)cs2)cc1
  0.702	.	-2.7	.	2.1%	1.4	0.9
CCOC(=O)c1c(CSc2ccc(C)cc2)oc2ccc(O)cc12
  0.725	.	-1.0	.	-1.9%	-5.6	3.6
O=S(=O)(c1ccc(Br)s1)N1CCN(c2ccnc3cc(Cl)ccc23)CC1
  0.73	.	1.1	i	-14.7%	0.2	-3.5
CC1=C(C(N)=O)C(c2cccnc2)n2nc(-c3cccc(Cl)c3)nc2N1 (centres undefined)
  0.671	.	0.7	.	30.3%	0.6	2.9
Cc1cc(=O)c(C(=O)Nc2cccc(C(=O)NC3CC3)c2)nn1-c1ccccc1
  .	0.0	.	i	-10.0%	6.2	.
O=C(COC(=O)c1cccc2c1C(=O)c1ccccc1C2=O)NC1CCCCC1
  0.71	12.5	4.5	i	.	0.8	3.5
O=C(Nc1ccc(S(=O)(=O)N2CCCCC2)cc1)C1CCCCC1
  0.619	2.3	2.1	i	.	-1.8	0.5
CN(CC(=O)NCC(=O)Nc1ccc(F)cc1)C1CCS(=O)(=O)C1 (centres undefined)
  0.69	?	.	i	-6.8%	1.4	1.0
COc1ccccc1OCc1ccc(C(=O)NCc2cccnc2)o1
  0.722	.	-1.8	.	?	-1.0	2.0
C=CCNC(=S)NNC(=O)c1ccccc1
  0.723	.	1.2	.	66.5%	-1.3	0.9
CC(=O)Nc1nc(NC(=O)/C=C/c2ccccc2)n(-c2ccccc2)n1
  0.72	.	-2.2	.	.	0.6	1.7
O=C1N=c2ccc(Br)cc2=C1c1sc(=S)n(NS(=O)(=O)c2ccccc2)c1O
  0.674	2.0	2.3	i	15.1%	-0.5	2.6
Cn1c(=O)c2c(nc(NCC3CCCC(CN)C3)n2Cc2ccc(Cl)cc2Cl)n(C)c1=O (centres undefined)
  0.679	15.5	5.5	i	.	4.3	5.8
COc1cccc(Nc2nc(C(N)C(C)C)cs2)n1 (centres undefined)
  .	9.2	.	i	.	-2.4	.
O=c1c2ccccc2nc2n1CCN2Cc1ccc(Cl)cc1
  0.645	-3.8	-2.4	i	7.2%	1.9	-71.0
CCCCN(C)C(=O)c1cn(-c2cccc(OC)c2)c(=O)c2ccccc12
  0.667	-0.2	5.0	i	-8.2%	-1.0	-2.7
CC(C)(C)NC(=O)C(c1ccncc1)N(C(=O)Cn1nnc(-c2ccc(F)cc2)n1)c1ccc(F)cc1 (centres undefined)
  0.689	-2.2	-1.0	i	4.9%	-4.2	2.0
CNC(=O)CSc1nc(SC)ns1
  0.706	-2.7	-2.3	i	-1.6%	-4.0	4.8
C/C=C/c1cccc(-c2nc(C(=O)NC3CCCC3)cc3c2[C@@H](CCO)N(S(=O)C(C)(C)C)C3)c1 (some centres undefined)
  .	2.0	.	i	.	12.8	.
Cn1nc(C(F)(F)F)c(-c2ccccc2)c1N
  0.677	-0.7	-1.9	i	-12.4%	2.4	3.1
COc1ccc(N2CC(C(=O)NCCS(=O)(=O)N3CCN(c4ccccc4)CC3)CC2=O)cc1 (centres undefined)
  0.665	-3.7	0.5	i	.	-2.3	0.6
CCC12CN3CCN(CC(C3)/C1=N\NC(=O)c1ccc(C(C)(C)C)cc1)C2
  .	-15.8	4.5	i	-3.1%	1.8	.
COCCCNC(=O)c1csc([C@@H]2C[C@H](O)[C@@H](CO)O2)n1
  .	-1.8	.	i	.	-2.5	.
CC(C)(C)NC(=O)C(c1ccncc1)n1c(=O)c(-c2ccccc2)nc2ccccc21 (centres undefined)
  .	4.3	.	i	.	-3.2	.
Cc1cc(NC(=O)CCNS(=O)(=O)c2cc(Br)cnc2N)ccc1Br
  0.674	.	-2.1	.	35.2µM*	-1.9	3.9
CC(C)CNC(=O)c1ccccc1NC(=O)Nc1ccccc1
  0.73	.	-2.0	.	-5.7%	2.4	-2.0
CC1CN(C(=O)CCC(=O)NCCCN2C(C)CCCC2C)c2ccccc2O1 (centres undefined)
  0.808	1.0	2.4	i	.	-3.2	2.8

Carrying on:
Sequence of screens: E coli growth	MLL AF4-AF9 inh	RanGTP-Impb inh	FGF22 binding	Vif A3G	HNF4A DNA FP	UCH37 DUB inh
COc1ccc(S(=O)(=O)N(C)CC(=O)NCCC2=CCCCC2)cc1
  0.711	.	0.1	.	10.5%	0.5	2.1
CC(C)C(=O)NC(=S)Nc1ccccc1C(=O)Nc1ccccc1
  0.693	11.6	-0.8	i	1.8%	2.4	-2.3
CC(C)OC(=O)/C(=C\c1cccc2ccccc12)NC(=O)c1ccccc1
  0.67	12.4	0.4	i	.	-0.1	4.0
O=C(NCCS(=O)(=O)N1CCCC1)c1ccccc1
  0.642	0.6	5.1	i	4.9%	-0.9	0.7
COC(=O)C(CC(C)C)NC(=O)/C=C/c1ccccc1Cl (centres undefined)
  0.686	-39.0	2.6	i	7.9%	1.0	7.2
O=C(CSc1nnc(-c2cccnc2)s1)Nc1cccc(C(=O)O)c1
  .	.	-0.6	.	0.9%	-2.7	.
Cc1ccc(C(=O)NC(C)CCc2ccccc2)cc1S(=O)(=O)N1CCOCC1 (centres undefined)
  0.69	0.7	.	i	.	-2.2	0.6
CC1CN(c2ccc([N+](=O)[O-])c(NCCOc3ccccc3)c2)CC(C)N1 (centres undefined)
  0.667	7.0	0.5	i	3.6%	-2.8	8.7
Cn1nccc1C(=O)N1CCN(c2cccc(C(F)(F)F)c2)CC1
  0.73	-0.9	-3.2	i	.	-1.0	0.3
Oc1ccc(N=Nc2ccccc2-c2nn[nH]n2)c(O)c1
  0.601	0.3	-0.4	i	5.7%	-9.6	26.9*
COc1ccccc1OCCOC(=O)Nc1ccccc1
  0.672	-50.3	-2.4	i	12.5%	-1.8	1.3
COc1cc(/C=C2/C(=O)NN(c3ccc(Cl)cc3)C2=O)cc(OC)c1O
  0.689	4.2	-3.3	i	-1.5%	3.0	6.0
C=CCN(C(=O)c1csnn1)C(C(=O)NC1CCCCC1)c1ccc(Cl)cc1 (centres undefined)
  0.667	-4.3	6.6	+	.	-0.5	1.1
CN(CCc1ccccn1)C(=O)c1cccnc1Oc1ccccc1
  0.691	-0.4	6.7	i	7.0%	2.2	2.2
Cc1ccccc1NC(=O)c1ccccc1N(C)S(=O)(=O)c1ccccc1
  0.713	13.9	-3.0	i	.	-0.1	-0.1
O=C(NCc1ccccc1)/C(=C\c1ccc(F)cc1)NC(=O)c1ccco1
  .	-0.6	.	i	-8.4%	0.0	.
CCCc1nc(SCC(N)=O)[nH]c(=O)c1CC
  0.738	.	3.4	.	10.1%	4.8	2.4
C/C(=C\c1ccccc1)CN1CCN(c2cccc(Cl)c2)CC1
  0.664	.	2.4	.	-7.2%	0.1	3.6
CCOc1ccccc1NC(=O)CSc1nnc2c(CC)c(C)nc(N)n12
  0.732	.	-0.7	.	1.1%	-1.3	3.7
COc1ccc(C(=O)NC2CCN(C(=O)Nc3ccc(F)cc3)CC2)cc1
  0.673	-1.9	4.5	i	.	0.2	5.2
CN1CCN(c2ccc(C(=O)c3cn(-c4ccc(F)c(Cl)c4)nn3)cc2)CC1
  0.712	-1.5	-3.8	i	-4.0%	7.3	-62.9
CN(CC(=O)Nc1cccc(F)c1)C(=O)c1cc(S(=O)(=O)N2CCCCC2)ccc1N1CCOCC1
  0.706	0.7	2.7	.	-2.6%	-1.2	1.6
CCC(=O)NS(=O)(=O)c1ccc(N=NN2CCCCC2)cc1
  0.657	-0.8	1.8	i	.	0.0	2.0
CCCCCCCn1c(C)nnc1-c1cnn(C)c1N
  0.692	-0.9	0.3	i	5.1%	6.3	2.3
